Cruzain Triton: blocks cruzain activity in presence of Triton detergent. P25779. Potency, µM, for inactives: max response, negative = inhibition, actives largely listed as inhibitors. purified cruzain, Z-FR-AMC fluorescence, 0.01% Triton. AID 1478. actives 0.43% (n = 200,000);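 note: plate controls were neutral wells for no effect and buffer without enzyme for full effect; nearly all actives have a fitted effect of over 40% in size; top concentration of the series not given in the record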
Target sequence (P25779 123-467 limits assumed): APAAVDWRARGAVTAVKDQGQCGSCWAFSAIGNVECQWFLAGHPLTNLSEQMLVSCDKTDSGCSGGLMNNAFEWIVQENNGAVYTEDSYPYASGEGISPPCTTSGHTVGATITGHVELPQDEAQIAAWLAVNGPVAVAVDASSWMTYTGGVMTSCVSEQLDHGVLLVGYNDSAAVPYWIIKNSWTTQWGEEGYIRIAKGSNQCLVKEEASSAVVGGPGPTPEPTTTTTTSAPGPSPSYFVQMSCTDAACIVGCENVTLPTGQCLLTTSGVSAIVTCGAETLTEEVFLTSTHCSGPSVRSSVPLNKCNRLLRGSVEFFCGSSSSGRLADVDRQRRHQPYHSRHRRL
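Cysteine protease activity tested under reducing, mildly acidic conditions (100 mM sodium acetate pH 5.5, 5 mM DTT) plus 0.01% Triton X-100. Cruzain 1.5 nM; substrate Z-FR-AMC 2 uM; 15 min compound preincubation at room temperature.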
2A StopGo: lowers the luciferase signal of an FMDV 2A StopGo reporter; Potency, µM (doses to about 57.9 µM), inactives show top-dose signal change, negative = less light; actives 1.2% (n = 410,000); human cells with a luciferase reporter of 2A StopGo recoding; control for the full effect not named in the record; active = well fitted falling curve with a large enough effect; inconclusive = small, poorly fitted or top-dose-only effect; inactive = no such curve, though single readings can be large or run the other way; tested in HEK293T cells; note: % is set by controls: 0 for no effect and ±100 for the full control effect; nearly all actives have a fitted effect of over 45% in size; luciferase light after 4 h
SARS PLP yeast: SARS-CoV PLP inhibition in yeast. actives 0.19% (n = 330,000). AID 485353. Potency, µM (series often up to 32.9 µM), inactives show top-dose activity, positive = growth rescue. S. cerevisiae expressing SARS-CoV PLpro, growth rescue; control for the full effect not named in the record; active means well fitted rising curve with a large enough effect; inconclusive means small, poorly fitted or top-dose-only effect; inactive means no such curve, though single readings can be large or run the other way; note: 0% is about no effect; nearly all actives have a fitted effect of over 55% in size; growth read by luminescence after 48 h
Cruzain inh noDet: blocks cruzain activity in detergent-free assay; purified cruzain, Z-FR-AMC fluorescence, no detergent; Potency, µM, for the others: max response, negative = inhibition, usual class: inhibitors; actives 2.3% (n = 200,000);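 note: plate controls were enzyme without inhibitor for no effect and buffer without enzyme for full effect; nearly all actives have a fitted effect of over 40% in size; top concentration of the series not given in the record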
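Detergent-free condition (0.00005% Triton X-100) in acetate buffer pH 5.5 with DTT. 1.5 nM enzyme and compound were pre-mixed 15 min, then 2 uM Z-FR-AMC substrate added; reaction progress from fluorescence change between first and third reads (60 s).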
RE007 growth inh: less growth of the S. pombe RE007 Vpr strain; S. pombe RE007 Vpr strain, BacTiter-Glo ATP luminescence, 24 h; control for the full effect not named in the record; Potency, µM (series often up to 92.2 µM), inactives show at the top dose activity change, negative = less growth; actives 0.21% (n = 360,000); AID 651644; active = well fitted falling curve with a large enough effect; inconclusive = small, poorly fitted or top-dose-only effect; inactive = no such curve, though single readings can be large or run the other way;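 note: % is set by controls: 0 for no effect and ±100 for the full control effect; nearly all actives have a fitted effect of over 50% in size; the assay follows cell death caused by Vpr and the record does not say whether a fall means rescue or toxicity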
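Fission yeast RE007 carrying one integrated HIV-1 vpr copy, seeded at OD 0.01 in PMG+AL medium with 23 nL pinned compound. Grown 24 h at 30 degrees; viability read by BacTiter-Glo luminescence after 5 min.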
Marburg entry inh: inhibitors of Marburg virus binding or cell entry | Marburg virus pseudotyped entry inhibition, cell reporter; control for the full effect not named in the record; about a third of the inactives were read at about 46 µM | Potency, µM (series often up to 37.8 µM), for the others: at the top dose activity change, negative = inhibition, hits mostly inhibitors | actives 1.8% (n = 300,000) | AID 540276; active = well fitted inhibition curve with a large enough effect; inconclusive = small, poorly fitted or top-dose-only effect, or effect the other way; inactive = flat fitted curve, though single readings scatter; tested in HEK293 cells; about a fifth of its hits are not listed in these tables; note: % is set by controls: 0 for no effect and ±100 for the full control effect; luciferase read-out
Lassa entry inh: blocks Lassa virus binding to or entry into cells; Lassa virus pseudotype entry inhibition, cell reporter; control for the full effect not named in the record; Potency, µM (top dose mostly 37.9 µM), inactives show at the highest dose activity change, negative = inhibition, actives largely listed as inhibitors; actives 1.2% (n = 300,000); active means well fitted inhibition curve with a large enough effect; inconclusive means small, poorly fitted or top-dose-only effect, or effect the other way; inactive means flat fitted curve, though single readings scatter; tested in HEK293 cells; note: % is set by controls: 0 for no effect and ±100 for the full control effect; nearly all actives have a fitted effect of over 50% in size; luciferase read-out
NS1 function inh: influenza NS1 inhibition; S. cerevisiae slowed by influenza A NS1, growth recovery by OD600; Potency, µM (top dose mostly 46.1 µM), for the others: at the top dose activity, positive = more growth; actives 0.4% (n = 270,000); active means well fitted rising curve with a large enough effect; inconclusive means small, poorly fitted or top-dose-only effect; inactive means no such curve, though single readings can be large or run the other way; note: nearly all actives have a fitted effect of over 50% in size
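A cell-based growth assay was used: compounds that relieve NS1-induced slow growth of budding yeast raise OD600. Assay medium was yeast nitrogen base with ammonium sulphate and -URA supplement, pH 6.0, with 2% galactose.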
Starred values were filed as active, the others as inactive; ? = inconclusive; . = not tested or not shown; & = joins results of further samples; [ ] = dose if it differs, or a comment. Unless noted, calls come from the whole dose curve; as a rule, active = well fitted curve in the direction sought with a large enough effect; inconclusive = small, poorly fitted or top-dose-only effect, or another doubt; inactive = no such curve, though single readings can be large; an effect the other way counts as inactive or inconclusive. Potency is the fitted concentration of half-maximal effect.

SMILES | Cruzain Triton | 2A StopGo | SARS PLP yeast | Cruzain inh noDet | RE007 growth inh | Marburg entry inh | Lassa entry inh | NS1 function inh
CCn1c(C)csc1=NC(=O)c1ccccc1 | 0.3% | 37.1%[activator] | -5.9% | -2.5% | ? | ? | ? | -83.4%
NNC(=O)CSCc1nc(-c2ccc(Cl)cc2)cs1 | . | -0.9% | -1.1% | . | 6.5% | 0.4%[46.1 µM] | 16.0%[46.1 µM] | 5.2%
CCOC(=O)c1ccc(NC(=O)COc2ccc(S(=O)(=O)NC(C)(C)C)cc2)cc1 | -5.6% | 7.7% | 21.6% | 10.6% | -0.6% | 8.1% | -3.5% | 7.4%
O=C(Cc1ccccc1)N1CCN(Cc2ccccn2)CC1 | 1.1% | -7.5% | -23.0% | -13.0% | 12.3% | -3.2% | 1.9% | -3.7%
COc1ccc(CCNc2nc(C)c(C(C)=O)s2)cc1OC | . | -7.4% | -14.6% | . | -4.8% | 1.7%[46.1 µM] | 9.9%[46.1 µM] | 12.1%
C=CCn1c(SCC(=O)Nc2ccc(OC)cc2)nc2ccccc2c1=O | . | 11.9% | 1.9% | . | -9.9% | 4.4% | 4.4% | ?
Cc1cc(O)c(C=Nc2ccc(N3CCOCC3)cc2)c(C)c1Cl | . | 14.6% | -1.0% | . | -0.3% | -0.5%[46.1 µM] | ? | 2.7%
CCOCCCNC(=O)C1CCN(c2nc3ccc(Cl)cc3[nH]2)CC1 | -5.1% | 4.3% | . | -9.2% | . | . | 0.8%[46.1 µM] | .
CC(c1ccccc1)n1c(NCCCn2ccnc2)nc2c1c(=O)[nH]c(=O)n2C (stereo not given) | -0.2% | . | 3.6% | -8.4% | . | 1.7% | . | -9.1%
Cc1ccnc(NC(=O)c2ccc3c(c2)OCO3)c1 | . | -61.1% | -3.4% | . | ? | ? | ? | -0.1%
COc1ccc(CCNc2c(C)c(C)nc3ncnn23)cc1 | 5.4% | ? | -6.5% | 3.3% | 19.6% | ? | ? | 0.0%
O=C1c2ccccc2C(=O)N1c1nccs1 | . | -28.5% | . | . | 6.1% | 14.6%[46.1 µM] | -7.4%[46.1 µM] | .
COc1ccc(S(=O)(=O)N2CCC(C(=O)N[C@@H](C)C(=O)NCc3cccc(OC)c3)CC2)cc1 | . | 3.8% | -10.5% | . | 4.6% | . | . | -23.3%
Nc1cc(=O)nc(SCC(=O)N2CCN(c3ccccc3)CC2)n1-c1ccccc1 | . | 2.5% | ? | . | ? | 5.7% | 4.0% | 6.6%
CC(C)CCN1CC(O)=C(c2nc(-c3ccc(Cl)cc3)cs2)C1=N | 1.6% | -20.8% | 0.1% | 25.1µM* | 8.4% | 21.6% | 0.5% | -1.5%
Cc1cc(C)c(Cn2c(C)c(CNCc3ccccc3C)c(C(=O)O)c2C)c(C)c1 | -5.0% | -0.7% | . | 7.6% | . | -21.2%[46.1 µM] | 0.0%[46.1 µM] | .
Cc1ccc(S(=O)(=O)N2CCOCC2)cc1C(=O)N1CCCC1 | . | 16.4% | -1.9% | . | 49.4% | -4.6%[46.1 µM] | 2.2%[46.1 µM] | -33.9%
COC(=O)c1cccc(N(C(=O)CNC(=O)c2cccs2)C(C(=O)NCC2CCCO2)c2ccc(OC)c(OC)c2)c1 (stereo not given) | . | 12.9% | 0.4% | . | 4.1% | -0.4%[46.1 µM] | 7.3% | 18.0%
CCCSc1ncnc2c1c(-c1ccccc1)cn2-c1ccccc1OC | -7.9% | -20.6% | . | 0.6% | . | 6.8%[46.1 µM] | 9.8%[46.1 µM] | .
N#Cc1ccc(NC(=O)c2ccc3c(c2)nnn3C2CCCC2)cc1 | 0.0% | -15.3% | . | 7.3% | . | . | 17.1%[46.1 µM] | .
CN1/C(=C\C=[N+](C)c2ccccc2)C(C)(C)c2ccccc21 | -8.3% | . | -0.7% | -19.7% | 10.1% | ? | 4.61µM* | -7.4%
COc1cc2c(cc1OC)CN(C(=O)Cc1ccccc1)CC2 | . | -7.1% | 0.5% | . | 9.2% | -27.8%[46.1 µM] | -0.7%[46.1 µM] | -0.2%
Cc1c(C(=O)N(Cc2ccc(Cl)cc2)C2CCS(=O)(=O)C2)oc2ccccc12 (stereo not given) | . | ? | -5.7% | . | 9.2% | ? | ? | 15.0%
Nc1nnnn1/N=C/c1cc(Cl)cc(Cl)c1OCc1ccc(Cl)cc1Cl | -2.0% | -22.1% | -2.4% | ? | -13.5% | -1.9%&-0.9% | 12.9% | -6.2%
O=C(c1ccc(-c2ccccc2)c(F)c1)C1CCCN(CCO)C1 (stereo not given) | . | 5.0% | 0.2% | . | 3.0% | ? | -19.6% | 1.8%
Additional records follow.
SMILES | Cruzain Triton | 2A StopGo | SARS PLP yeast | Cruzain inh noDet | RE007 growth inh | Marburg entry inh | Lassa entry inh | NS1 function inh
COC(=O)c1ccc(Cn2nc(C)cc2C)cc1 | -2.2% | 36.0%[activator] | -2.5% | -3.8% | 15.2% | 26.3%[46.1 µM] | 19.7% | -1.2%
COc1cccc(NC(=O)Nc2cc(Cl)ccc2C)c1 | . | -19.8% | -1.2% | . | 2.1% | ? | -28.6% | .
CC(C)(C)c1ccc(C(=O)NCCCNC(=O)c2ccco2)cc1 | . | 8.7% | -0.3% | . | -7.3% | 4.4%[46.1 µM] | ? | -13.7%
Cc1ccc(C(=O)N(Nc2nc3ccccc3s2)C(=O)c2ccc(C)cc2)cc1 | 2.4% | 22.1% | 5.8% | ? | -0.1% | ? | ? | 11.1%
Cc1ccccc1-c1nc(CS(=O)(=O)CC(=O)NCC(C)c2ccccc2)c(C)o1 (stereo not given) | 0.0% | -10.4% | . | 22.6% | . | -17.0%[46.1 µM] | 10.1%[46.1 µM] | .
O=C(Cc1ccc(Br)cc1)N1CCCC1 | . | 27.8% | -8.4% | . | 14.7% | 2.4% | 3.6% | -7.2%
COc1ccc(S(=O)(=O)N/N=C(/C)c2ccc(Cl)cc2)cc1 | -10.8% | 91.8%[activator] | 0.6% | -1.8% | 11.3% | -23.4% | -10.3% | 18.0%
O=c1c2ccc(Cl)cc2nc(-c2ccc([N+](=O)[O-])cc2)n1O | . | -17.4% | 1.7% | . | ? | ? | ? | .
CCCCNCCOCCOc1ccc(Cl)cc1Br | -4.0% | -25.3% | -17.2% | -0.1% | 0.0% | ? | ? | -5.2%
Cc1ccc(NCCN(C)C)c2c(=O)c3cc(O)ccc3sc12 | . | -23.3% | . | . | 5.9% | ? | 3.98µM* | .
CCc1ccc(NC(=O)c2cc(-c3ccc4c(c3)OCO4)on2)cc1 | . | 8.4% | -2.9% | . | 1.6% | -0.8%[46.1 µM] | 15.1%[46.1 µM] | 2.0%
CCOC(=O)c1c(NC(=O)CSc2nncn2C)sc(C)c1C | -3.7% | -20.7% | 3.9% | -3.7% | -9.8% | 18.6% | 15.2% | -4.3%
COc1ccccc1NC(=S)NC1CCCCCC1 | -3.6% | 33.5%[activator] | -32.9% | 1.7% | 26.7% | 10.7% | -0.4% | -23.1%
Cn1c(=O)[nH]c(=O)c2c1nc(N)n2Cc1ccccc1 | . | -11.6% | -1.9% | . | -1.8% | -0.4%[46.1 µM] | 1.5%[46.1 µM] | 0.9%
O=C1c2cccc(NCCNCCO)c2C(=O)c2cccc(NCCNCCO)c21 | . | 0.0% | . | . | -24.2% | 5.01µM* | ? | .
CCn1nc(C)c(/C=N\NC(=O)c2ccc3c(c2)OCO3)c1C | -4.8% | -13.8% | -5.6% | -8.8% | -1.3% | -7.4%[46.1 µM] | -2.2% | -7.8%
Nc1cccnc1Sc1ccc(Cl)cc1 | 3.7% | -9.2% | 14.0% | -1.8% | -26.9%[3.69 µM] | 3.6% | 0.9% | -5.0%
CCc1ccc(Nc2cnn(-c3nc4ccccc4s3)c(=O)c2Cl)cc1 | -13.6% | -29.0% | 5.1% | -23.6% | -20.4% | 0.7% | -15.5% | 11.4%
COc1cc(NC(=O)CSc2ncnc3sc4c(c23)CCC(C)C4)c(C(=O)O)cc1OC (stereo not given) | . | -6.2% | 3.1% | . | -9.2% | 13.1%[46.1 µM] | ? | -7.7%
Cn1cnc2nc[nH]c2c1=S | . | -24.3% | . | . | 8.1% | -8.7% | 8.5% | .
CC(C)CC1c2[nH]c3ccccc3c2CCN1C(=O)CCC(=O)N(C)C (stereo not given) | . | 15.3% | 0.2% | . | 6.7% | 14.9%[46.1 µM] | 6.9% | -5.3%
COC1OC2COC(c3ccccc3)OC2C(O)C1N (stereo not given) | . | -5.2% | . | . | -7.7% | -7.3%[46.1 µM] | -7.5%[46.1 µM] | .
CCSC1=C(C#N)C(c2ccccc2Cl)CC(=O)N1 (stereo not given) | -0.8% | -21.4% | 3.2% | 11.8% | -2.9% | ? | -5.6% | 4.1%
Cc1ccc(NC(=O)CN2CCc3cc4c(cc3C2C)OCCCO4)cc1 (stereo not given) | . | -19.7% | 2.2% | . | -13.3% | ? | -29.2%[46.1 µM] | -21.0%
CCc1nonc1NC(=O)c1oc2ccccc2c1C | -1.8% | 56.6%&39.7%[activator] | -0.5% | -8.0% | -17.0% | 13.3%[46.1 µM] | 2.5%[46.1 µM] | -15.3%
(more compounds)
SMILES | Cruzain Triton | 2A StopGo | SARS PLP yeast | Cruzain inh noDet | RE007 growth inh | Marburg entry inh | Lassa entry inh | NS1 function inh
O=C(CCCN1C(=O)c2cccc3cccc(c23)C1=O)NCc1cccnc1 | . | -25.7% | 2.4% | . | -8.6% | 0.6% | 7.6% | .
COc1ccc(NC(=O)CSc2nnc(NC(=O)c3ccco3)s2)cc1OC | . | 20.2% | -9.7% | . | -9.2% | -1.9% | 13.1% | -0.9%
Nn1cnnc1SCC(=O)Nc1ccc2c(c1)OCO2 | . | -3.3% | -2.7% | . | -9.0% | 18.3%[46.1 µM] | 14.4%[46.1 µM] | .
CN1C2CCC1/C(=C\c1ccccc1Cl)C(=O)/C2=C\c1ccccc1Cl | -3.1% | . | -6.1% | -1.4% | . | 4.5% | . | -6.4%
CCOC(=O)c1c(N)sc2c(NC(C)=O)cccc12 | 2.4% | 0.0% | -13.0% | -8.6% | 8.2% | -5.3% | -15.9% | -6.2%
COC(=O)[C@@H]1C[C@H]2CC[C@H](O)C[C@H]2N1Cc1ccc(C)s1 | -4.6% | -6.6% | -2.3% | -4.8% | 4.7% | . | . | 10.5%
CC(=O)N1CC(C)c2scc(C)[n+]2-c2ccccc21 (stereo not given) | 0.0% | 16.4% | 2.9% | 2.0% | 0.4% | -5.9% | -1.9% | 12.3%
Cc1cc(=O)[nH]c(N/N=C/c2ccc(OC(=O)c3cccnc3)cc2)n1 | . | -2.7% | 0.0% | . | -16.9% | 18.0%[46.1 µM] | -1.5%[46.1 µM] | .
